# From PubChem
# Menin-MLL FL inh: inhibitors of human menin-MLL interaction, wild-type MLL peptide; FP activity change, % at 61.4 µM; AID 1766; Fluorescence polarization, fluorescein-MLL peptide displacement from menin; 290,000 tested, under 10 active; inconclusive = falling polarisation curve, or a change in total fluorescence; inactive = total fluorescence flat and polarisation flat or rising; no compound was filed as active; the % refers to the polarisation; negative = inhibition;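 also: % of control where 0% means no effect; inhibitors lower the polarisation; unlabelled MLL peptide was the positive control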
# TRPV1 PAM: enhances activation of the human vanilloid receptor TRPV1. Q8NER1. TRPV1-expressing cells, Fluo-8 calcium influx, capsaicin EC20 potentiation; host cell line not named in the record; control for the full effect not named in the record. potentiation, % at 8.33 µM. 320,000 tested, 0.02% active; active means potentiation above 80%; inconclusive means 30% to 80%; inactive means below 30%; also: 0% is about no effect
# Target sequence (Q8NER1 whole entry, looked up): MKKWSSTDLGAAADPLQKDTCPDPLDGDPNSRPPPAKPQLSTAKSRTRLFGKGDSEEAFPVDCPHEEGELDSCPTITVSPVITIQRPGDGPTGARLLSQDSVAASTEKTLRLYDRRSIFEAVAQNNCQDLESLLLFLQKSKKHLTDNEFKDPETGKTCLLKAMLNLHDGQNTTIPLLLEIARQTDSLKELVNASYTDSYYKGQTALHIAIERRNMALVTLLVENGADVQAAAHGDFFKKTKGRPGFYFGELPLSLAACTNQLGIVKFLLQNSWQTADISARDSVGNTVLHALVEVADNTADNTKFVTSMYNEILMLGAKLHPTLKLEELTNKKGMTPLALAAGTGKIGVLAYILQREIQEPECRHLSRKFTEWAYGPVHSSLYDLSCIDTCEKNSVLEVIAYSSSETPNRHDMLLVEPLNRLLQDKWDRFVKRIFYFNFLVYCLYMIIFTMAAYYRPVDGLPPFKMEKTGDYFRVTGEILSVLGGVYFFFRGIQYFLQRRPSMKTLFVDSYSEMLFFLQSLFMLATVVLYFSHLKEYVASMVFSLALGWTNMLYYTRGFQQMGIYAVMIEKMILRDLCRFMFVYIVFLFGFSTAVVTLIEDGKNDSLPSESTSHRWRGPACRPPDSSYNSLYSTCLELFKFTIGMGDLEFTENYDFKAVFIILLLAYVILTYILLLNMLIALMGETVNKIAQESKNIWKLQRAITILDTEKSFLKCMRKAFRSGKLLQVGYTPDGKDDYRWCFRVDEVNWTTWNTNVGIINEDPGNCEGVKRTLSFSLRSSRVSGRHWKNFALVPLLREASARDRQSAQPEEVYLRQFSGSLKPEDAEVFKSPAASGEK
#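 Cells expressing TRPV1 were dye-loaded with Fluo-8 and read kinetically: 10 s baseline, 3 min after compound (agonist portion), then 2 min after EC20 capsaicin (allosteric enhancer portion). Calcium-bound dye fluorescence at 480/520 nm.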
# ClpP mod: qHTS Assay for Activators of ClpP. ATP-dependent Clp protease proteolytic subunit (Bacillus subtilis (strain 168)), P80244. purified B. subtilis ClpP, FRET peptide cleavage, 20 min. Potency, µM (highest dose often 57.5 µM), for inactives: top-dose activity change, negative = active. 340,000 tested, 1.9% active; active = well fitted falling curve with a large enough effect; inconclusive = small, poorly fitted or top-dose-only effect; inactive = no such curve, though single readings can be large or run the other way; also: potency is read from the fitted curve at half-maximal effect; the source files actives as falling curves though it sought activators and does not explain the sign; nearly all actives have a fitted effect of over 65% in size; many hits overshoot -100%
# Target sequence (P80244 whole entry, looked up): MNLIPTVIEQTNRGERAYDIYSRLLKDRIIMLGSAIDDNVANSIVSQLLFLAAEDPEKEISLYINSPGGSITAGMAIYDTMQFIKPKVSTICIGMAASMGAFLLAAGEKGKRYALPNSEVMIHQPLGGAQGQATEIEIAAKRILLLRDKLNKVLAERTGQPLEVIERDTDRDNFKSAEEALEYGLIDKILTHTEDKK
#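 Buffer: 100 mM Tris/HCl pH8, 100 mM KCl, 0.05% low protease BSA, 2.5% glycerol, 0.01% Tween-20. ClpP 10 microg/mL final; 20 min RT; delta FRET normalized to ADEP and DMSO controls.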
# TRPML1 ag: human mucolipin-1 channel agonism. TRPML1-expressing cells, Ca2+ dye fluorescence, FDSS; host cell line not named in the record; reference of the full effect not given here. activation, % (test concentration not listed). 410,000 tested, 0.12% active. AID 624414; in the data active = activation above about 50%; inconclusive = about 30% to 50%; inactive = below about 30%; also: 0% is about no effect; the text of the record puts the active cut at 80%
#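 In this qHTS format, compounds were pin-transferred onto Ca8-dye-loaded TRPML1-DL cells induced with Tet overnight, and intracellular Ca2+ fluorescence was recorded kinetically for 110 s after a 10 s baseline. A subsequent 4uM final 54-4 (EC80) addition followed by a second 110 s read served as the antagonist phase.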
# Sfp inh: inhibitors of Bacillus subtilis Sfp phosphopantetheinyl transferase. Biochemical Sfp PPTase activity, qHTS. AID 1490. Potency, µM, for the others: max response, negative = inhibition, hits mostly inhibitors. 310,000 tested, 3.5% active; active = well fitted inhibition curve with a large enough effect; inconclusive = small, poorly fitted or top-dose-only effect, or another doubt; inactive = no such curve, though single readings can be large or run the other way;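 also: the enzyme is Sfp with the accession as filed and its product quenches rhodamine fluorescence; potency is read from the fitted curve at half-maximal effect; 0% = enzyme reaction without inhibitor and -100% = no enzyme wells; top concentration of the series not given in the record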
#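 Step 1, compound plus 15 nM Sfp-PPTase, 15 min, room temperature. Step 2, add rhodamine-CoA (5 uM) and BHQ-2-YbbR (12.5 uM). Step 3, read 525/598 nm fluorescence at 0 and 30 min.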
# TRPML1 inh: human mucolipin-1 channel inhibition; Q9GZU1; TRPML1-inducible cells, Ca2+ dye fluorescence, FDSS; stronger effect = lower value; inhibition of EC80 agonist-evoked calcium signal; activity change, negative = inhibition, % (concentration not given with the values); 390,000 tested, 0.02% active; in the data active means activity change below about -50%; inconclusive means about -30% to -50%; inactive means above about -30%;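 also: stimulus is agonist 54-4 at its EC80 concentration; % is scaled to controls: 0 for no effect and ±100 for the full control effect; compound concentration not given in the record; the text of the record puts the active cut at -80%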
#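 TRPML1-DL cells, Tet-induced overnight (~16 h, 37 °C) at 1,500 cells/well, were loaded with Ca8 no-wash dye plus quencher for 45-90 min at room temperature. Compounds were pinned during FDSS kinetic reading; agonist 54-4 at EC80 (4 uM final) then added.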
# PINK1 modulator: changes PINK1 expression. PINK1 immunofluorescence, high-content cytometry, 24 h. Potency, µM (doses to about 76.6 µM), for the others: top-dose activation (PINK1 increase), hits mostly activators. 410,000 tested, 0.2% active. AID 624263; active = well fitted activation curve with a large enough effect; inconclusive = small, poorly fitted or top-dose-only effect; inactive = flat fitted curve, though single readings scatter; cell line not stated here;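 also: potency is read from the fitted curve at half-maximal effect; % of control where 0% means no effect; nearly all actives have a fitted effect of over 65% in size; a mitochondrial uncoupler was the plate control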
#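 Stable cell line, 250 cells/well, 12 h attachment; compounds pinned at 5 concentrations, 24 h; CCCP control. Fixed with nuclear dye, primary antibodies 12 h at 10 degrees C, secondary plus cell stain; laser-scanning cytometer read.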
# * hit, by the source's call; ? = inconclusive; · = no result given; & = joins results of further samples; [ ] = dose if it differs, or a comment.
SMILES,Menin-MLL FL inh,TRPV1 PAM,ClpP mod,TRPML1 ag,Sfp inh,TRPML1 inh,PINK1 modulator
CCOc1cc2[nH]c(=S)n(CCCN3CCOCC3)c(=O)c2cc1OCC,1.7,20,-0.3%,-0.4,-8%,0,-2.2%[38.3 µM]
CN1N=C(c2ccc(Cl)cc2)CC(c2ccc(Cl)cc2)C1=O (configuration not stated),0.5,-15,·,0.5,-4%,-2,6.3%
C[n+]1ccc2[nH]c3ccccc3c2c1,·,·,4.6%,-0.2,·,·,1.5%
COc1cc(C(=O)N2C(=O)c3cccc(N)c3C2=O)cc(OC)c1OC,-25,5,·,-0.1,12%,-5,1.3%
CC(C)=CCCC(C)CN1CCC(n2nccc2NC(=O)c2ccccc2)CC1 (configuration not stated),·,-8,-0.3%,-0.2,10%,-5,9.2%
C=CCC[C@@H](Cc1ccc(F)cc1)C(=O)OC[C@H](Cc1c[nH]c2ccccc12)NC(=O)[C@@H](CC=C)CC(=O)NCCO,·,·,1.0%,8.4,·,-12,?
CC(C)Oc1ccc(C2CC(=O)N(c3cccc(Br)c3)C2=O)cc1 (configuration not stated),-0.9,-5,-0.5%,2.3,10%,-9,0.3%
CC(=O)c1cccc(NC(=O)C2=CC(c3cccs3)=NS(=O)(=O)N2C)c1,·,-6,·,-0.6,5%,-8,3.5%
Cc1cccc(OCCOCCN2CCOCC2)c1C,0.7,-4,-1.1%,0.6,15%,-11,-0.6%[38.3 µM]
COC(=O)c1ccc(C)c(NC(=O)CCCN2C(=O)NC(C)(C)C2=O)c1,·,-7,-2.5%,1.2,·,5,1.5%
Cc1nn(CCc2n[nH]c(=S)n2-c2ccc(F)c(Cl)c2)c(C)c1[N+](=O)[O-],0.9,·,-1.0%,-0.1,-16%,19,-1.5%[38.3 µM]
O=C1CC(c2ccc(Cl)c(Cl)c2)CC(O)=C1C=NCCN1CCNCC1 (configuration not stated),-0.9,-10,·,·,-2%,·,·
O=C(CSc1nnc(-c2ccc(Cl)cc2)n1-c1ccc(Cl)cc1)N/N=C/c1ccccc1C(=O)O,0.8,-7,·,0.3,22%,12,1.7%
O=C(N/N=C\c1cccc(F)c1)c1ccc(Cn2cc(Br)c([N+](=O)[O-])n2)o1,-2.0,-12,·,1.5,25%,-10,7.1%
C#CCOCCOCCOCCNc1nc(N2CCN(C(=O)Cn3cc(CCCCN)nn3)CC2)nc(N2CCN(C(=O)[C@H](C)n3cc(CCC(=O)O)nn3)CC2)n1,·,·,1.1%,-0.3,·,-2,1.8%
S=c1[nH]nc(-c2cccnc2)n1/N=C/c1ccccc1,1.3,5,0.2%,-0.4,-14%,-2,-0.6%
CC(Sc1ncnc2sccc12)C(=O)Nc1ccc(S(=O)(=O)N2CCOCC2)cc1 (configuration not stated),·,·,-1.4%,2.5,·,1,-0.8%
CC1(C)CC(=O)c2sc(NC(=O)C3CC3)nc2C1,1.6,-7,-22%,-0.7,0%,2,-0.3%
O=C(OCC(=O)N1CCCCC1)c1ccc2c(c1)C(=O)N(Cc1ccco1)C2=O,·,3,-0.5%,-0.1,·,1,-0.9%
COC(=O)[C@@]1(C)[C@H]2C(=O)N(C)C(=O)[C@H]2[C@H]2CN=C(SCC(=O)c3ccccc3)N21,·,·,-0.5%,1.6,·,33,-0.6%
Cn1c(N)c(C(=O)COC(=O)c2ccccn2)c(=O)n(C)c1=O,2.0,3,·,0.1,6%,-1,0.4%
CC(C)Cc1ccc(C(=O)Nc2ccc(Cc3ccncc3)cc2)o1,0.5,-3,·,-0.9,4%,1,0.6%
CC(C)C(=O)c1cn(CC(=O)O)c2ccccc12,-0.8,?,·,-0.4,5%,-13,-1.8%
O=C(CN1CCN(Cc2cccc(Cl)c2)C1=O)NCc1cccs1,-4.1,-7,-1.7%,-0.4,19%,7,2.9%
Cn1cc(Cl)c(C(=O)OCC(=O)Nc2ccc(S(N)(=O)=O)cc2)n1,3.4,-15,-3.3%,0.0,12%,-5,0.3%
O=C1CN(C(=O)c2ccc(S(=O)(=O)N3CCCCC3)cc2)C(c2ccc(F)cc2)c2cc(F)ccc2N1 (configuration not stated),·,·,-2.2%,3.5,·,-3,-1.4%
O=C(O)c1cccc(S(=O)(=O)Nc2ccc(S(=O)(=O)N3CCOCC3)cc2)c1,-0.3,1,-3.7%,-0.2,22%,28,0.8%
CCn1c(/C(C#N)=N/O)nc2ccccc21,0.3,?,-1.4%,0.0,-30%,?,3.0%
CC(O)CCC(=O)NNC(=S)Nc1ccccc1 (configuration not stated),0.6,-5,-0.1%,-0.7,0%,2,-1.2%
O=C(C1CCN(S(=O)(=O)c2ccc(Br)s2)CC1)N1CCN(c2ccccc2)CC1,-1.5,4,-0.4%,3.8&2.5,15%,14&-5,1.3%&1.5%
COc1ccc(N2CCCC2=O)cc1S(=O)(=O)N1CCOCC1,·,·,1.3%,0.1,·,9,4.8%
CCc1cccc(C)c1NC(=O)C1CC=CCC1C(=O)O (configuration not stated),-6.7,25,·,0.1,-5%,3,0.2%
CC1(C)CC(=O)C(C=NCCN2CCN(C3CC(=O)N(c4cccc(Br)c4)C3=O)CC2)=C(O)C1 (configuration not stated),0.8,1,?,-1.3,14%,2,1.0%
O=C(c1ccc(Cl)c(Cl)c1)N1CCN(c2ccccn2)CC1,-1.2,-11,-6.3%,2.7,15%,3,0.2%
CN(C)c1ccc(N=Cc2nc(-c3ccccc3)oc2OC(=O)c2ccccc2)cc1,14,-17,?,0.4,5%,-5,-0.9%
CCN(CC(=O)NC1CCS(=O)(=O)C1)S(=O)(=O)c1ccc(C)c(C)c1 (configuration not stated),-3.2,7,-1.0%,-0.1,-18%,3,3.3%
CCOC(=O)c1c(C)[nH]c(C)c1C(=O)COC(=O)/C=C/c1ccc(OC(F)F)cc1,5.5,9,2.9%,4.3,9%,-3,0.6%
OCCn1c(SCCOc2ccccc2)nc2ccccc21,0.2,-1,1.4%,0.8,6%,-10,·
O=C(C1CCCN(Cc2ccncc2)C1)N1CCc2ccccc2C1 (configuration not stated),2.4,2,-1.6%,-0.4,?,4,-1.7%
O=C(O)CCCCCNC(=O)c1ccncc1,4.6,?,0.3%,0.1,3%,9,-0.6%
c1ccc(Cn2ncc3c(NCc4ccco4)ncnc32)cc1,2.6,-9,2.0%,0.1,-11%,12,8.1%[38.3 µM]
O=C(CN(Cc1ccccc1F)S(=O)(=O)c1ccc(Cl)cc1)NCCCO,1.0,-6,0.6%,-0.1,10%,8,2.9%
C=CCNc1nc(NCc2ccc(N(C)C)cc2)c2sc(-c3ccccc3)cc2n1,·,·,?,-0.5,·,·,?
COc1ccc(Cl)cc1NC(=S)NC(=O)c1ccco1,·,-9,1.6%,0.0,·,1,1.5%
O=C1CN(C(=O)COc2ccc(Cl)cc2Cl)C(c2ccccc2)c2cc(F)ccc2N1 (configuration not stated),·,·,-1.2%,1.1,·,-13,-2.1%
COC(=O)[C@]1(Cc2ccccc2)N[C@H](CN(C)C(=O)Nc2ccc(C(F)(F)F)cc2)[C@@H]2C(=O)N(C)C(=O)[C@@H]21,·,·,1.3%,1.7,·,-10,1.2%
c1nc(NCCN2CCOCC2)c2sc3nc(N4CCOCC4)c4c(c3c2n1)CCC4,1.4,4,-17%,-0.8,7%,7,-1.1%
NS(=O)(=O)c1ccc(NC(=S)NC2CCCCCC2)cc1,6.2,-6,-0.5%,-0.1,25µM*,-2,0.9%
CCc1cccc(NC(=O)CCS(=O)(=O)c2cccc3nonc23)c1,-1.8,-4,-4.6%,6.4,8%,-7,-0.8%
O=C(Nc1ccc(O)cc1)c1ccc2c(c1)C(=O)N(N1C(=O)c3ccccc3C1=O)C2=O,·,-2,-2.3%,-0.1,10%,-2,-0.3%
CCCCn1c(=NC(C)=O)c(C#N)cc2c(=O)n3cccc(C)c3nc21,·,·,·,0.3,·,-19,8.1%
NC(=O)NC(Cc1ccccc1)C(=O)NCCCSc1ccccc1 (configuration not stated),-0.7,-7,·,1.3,17%,27,-0.7%
CCOc1ccc(Cn2c(=O)oc3ccc(C)cc32)cc1OC,-0.4,2,-2.4%,1.1,-1%,-2,0.2%
O=C(COC(=O)c1ccco1)NCc1ccc2c(c1)OCO2,2.8,-5,-1.8%,1.0,14%,-10,0.2%
O=C(Nc1cccc(-c2ccc(N3CCOCC3)nn2)c1)c1ccc([N+](=O)[O-])cc1,·,23,-0.7%,-0.8,·,-2,5.3%
CC(CC(=O)O)NCC1COc2ccccc2O1 (configuration not stated),·,·,·,0.6,·,9,-2.0%
COc1ccc(/C=C/C(=O)c2ccc(C)c([N+](=O)[O-])c2)cc1O,6.5,-1,-2.8%,2.2,79µM*,17,-0.2%
CCOc1ccc(OCCC(=O)OCC(=O)NC2CCCCC2)cc1,-1.2,-28,1.1%,0.2,0%,12,-0.8%
O=c1[nH]c(/C=C/c2ccccc2OC(F)F)nc2c1cnn2-c1ccccc1,2.5,3,11µM*,-0.4,15%,1,2.3%

# Whole records, quoted from the list. Order of screens: Menin-MLL FL inh | TRPV1 PAM | ClpP mod | TRPML1 ag | Sfp inh | TRPML1 inh | PINK1 modulator
# Cn1cc(Cl)c(C(=O)OCC(=O)Nc2ccc(S(N)(=O)=O)cc2)n1 reads 3.4 | -15 | -3.3% | 0.0 | 12% | -5 | 0.3%
# C#CCOCCOCCOCCNc1nc(N2CCN(C(=O)Cn3cc(CCCCN)nn3)CC2)nc(N2CCN(C(=O)[C@H](C)n3cc(CCC(=O)O)nn3)CC2)n1 reads · | · | 1.1% | -0.3 | · | -2 | 1.8%
# O=C1CN(C(=O)c2ccc(S(=O)(=O)N3CCCCC3)cc2)C(c2ccc(F)cc2)c2cc(F)ccc2N1 (configuration not stated) reads · | · | -2.2% | 3.5 | · | -3 | -1.4%
# Cc1nn(CCc2n[nH]c(=S)n2-c2ccc(F)c(Cl)c2)c(C)c1[N+](=O)[O-] reads 0.9 | · | -1.0% | -0.1 | -16% | 19 | -1.5%[38.3 µM]
# COc1ccc(/C=C/C(=O)c2ccc(C)c([N+](=O)[O-])c2)cc1O reads 6.5 | -1 | -2.8% | 2.2 | 79µM* | 17 | -0.2%
